NPYLR7 ag = activates Aedes aegypti NPYLR7 receptor. HEK293T NPYLR7/Galpha15, GCaMP6s calcium fluorescence. 270,000 compounds, 0.15% hits. AID 1259423. activation, % at 10 µM; in the data active = activation above about 40%;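 also: 0% = vehicle and 100% = reference agonist at the receptor; some compounds past the cut are filed as inactive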
NPYLR7 ag max-min = also measured in NPYLR7 ag; calls as there; activation, %; measured here: Max-Min RFU normalised activation; some inactives read as strong as hits;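 span of the calcium signal over five minutes; 0% = vehicle and 100% = native peptide agonist; compound fluorescence can raise it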
Active calls of the source: *; & = joins results of further samples.

Molecule | NPYLR7 ag | NPYLR7 ag max-min
O=C(c1ccccc1Cl)N1CCN(CCN2C(=O)CSC2c2ccc(Cl)c(Cl)c2)CC1 (centres undefined) | 4 | 15
CCOC(=O)C1=C(C)OC(=N)C(C#N)C1c1ccc(Cl)cc1 (centres undefined) | -3 | -11
CCc1sc(-c2nnc(-c3cccc(OC)c3)o2)cc1C | 1 | -1
Cc1cc(C)n(S(=O)(=O)N2CCOCC2)n1 | -2 | -6
Cn1c(=O)c2[nH]c(NC3CCCCC3)nc2n(C)c1=O | -1 | -4
CCOC(=O)CN1CC23C=CC(O2)C(C(=O)O)C3C1=O (centres undefined) | 11 | 5
c1ccc(C2=NNC(c3ccccc3)=NN2)cc1 | 7 | 7
CSc1ccccc1NC(=O)C1(C)CCN(C(C)C)C1 (centres undefined) | 3 | 3
NC(=S)N/N=C(\c1nnc(N)s1)c1ccccc1N | 3 | 7
O=C1CN(N=Cc2ccc([N+](=O)[O-])o2)C(=O)N1 | 0 | -7
Cc1c(N=Cc2ccc(OC(=O)c3cccnc3)cc2)c(=O)n(-c2ccccc2)n1C | -3 | -7
CC(C)CC(C(=O)Nc1nccs1)N1C(=O)c2ccccc2C1=O (centres undefined) | -8 | -19
Cc1cccc(N2C(=O)CSC2c2ccncc2)c1 (centres undefined) | -5 | -10
COc1ccc(C2c3cccn3CCCN2Cc2cc([N+](=O)[O-])ccc2Cl)cc1O (centres undefined) | -5 | 6
Cc1cccc(-c2noc(N3CCOCC3)c2CN(CC2CC2)C(=O)c2cccs2)c1 | 4 | 13
CCCN(CCC)c1cc(Cl)nc(SCc2cccc(C(=O)N3CCN(Cc4ccc5c(c4)OCO5)CC3)c2)n1 | 7 | 10
COc1ccc(CCN(C)c2cc(C(C)(C)C)nc(SCc3ccc(C(=O)N4CCN(C(C)=O)CC4)o3)n2)cc1OC | 8 | 11
CCN(Cc1c(C)nn(CC)c1C)Cc1cccc2nsnc12 | -4 | 0
CCN(CC)C(=O)Oc1ccc2c(ccn2Cc2ccc(F)cc2C(F)(F)F)c1-c1cc(C)cc(C)c1 | 1 | 5
COc1ccc(S(=O)(=O)N2CCCC(C)C2)cc1N1CCN(C(=O)c2ccco2)CC1 (centres undefined) | 27 | 21
O=C(NCc1ccccn1)C1CCN(C2CCN(Cc3cccc4c3OCO4)CC2)CC1 | 4&8 | 2&6
CCCCn1c(CNC(=O)C23CC4CC(CC(C4)C2)C3)nnc1SC(C)C | -1 | -2
Cc1ccc(S(=O)(=O)N2CC(=O)N(Cc3ccccc3)CC(C)(C)C2)cc1 | 28 | 30
CCOc1nc(-c2cccc(C(F)(F)F)c2)n(-c2ccc(NCC(O)Cc3ccccc3)cc2)n1 (centres undefined) | 18 | 21
O=[N+]([O-])c1ccc(Cl)c(S(=O)(=O)Oc2ccc3ccccc3c2)c1 | 0 | -1
COc1cc(OC)cc(C(=O)Nc2c(C)nc3ccc(C)cn3c2=O)c1 | 4 | 1
COc1cccc(OC)c1-c1cnnc(NCc2cccc(C(F)(F)F)c2)n1 | 4 | 2
O=S(=O)(c1cccc(F)c1)N1CCC(Cc2ccc(-c3ccccc3)cc2)CC1 | 3 | 4
COc1ccccc1C(C)N(C)Cc1nc(-c2ccc(C(F)(F)F)cc2)no1 (centres undefined) | 4&8 | 1&5
CCOC(=O)c1ccc2nc(NC(=O)CSc3nc4ccccc4o3)sc2c1 | -10 | -12
Nc1nc2ccc(OCC(F)(F)F)cc2s1 | -1 | -3
COc1ccc(-n2ncc(Oc3cccc(OC)c3)c(Nc3ccc(C(=O)NCc4ccco4)cc3)c2=O)cc1 | 6 | 9
O=C1CN(C(=O)c2coc(CN3CCN(Cc4ccccc4)CC3)n2)CCCN1 | 9 | 6
CC1(C)O[C@@H]2C[C@@](OCc3ccccc3F)(C(=O)NN3CCOCC3)CC(OCc3cccc(Cl)c3)[C@@H]2O1 (some centres undefined) | 2 | 6
CCn1cncc1CNC(=O)c1coc(COc2cccc(F)c2F)n1 | 4 | 0
Cc1ccc(-n2c(CCC(=O)NCC3CCCO3)cc3c2-c2ccccc2OC3)c(F)c1 (centres undefined) | 2 | -1
CCCc1nc(C(=O)NCc2noc(-c3ccco3)n2)cs1 | -3 | -3
COc1ccc(-c2cc(C(F)(F)F)n3nc(C(=O)NCCN4CCOCC4)cc3n2)cc1 | -15 | -20
Cc1cc(C(=O)N2CCC2(C)C(=O)N2Cc3ccccc3C2)nn1C (centres undefined) | 8 | 6
CNC(=O)Cc1nc(-c2ccc(CCNS(C)(=O)=O)cc2)cs1 | 2 | 1
COc1cc(OC)nc(Nc2nc(C(N)Cc3ccc(Cl)cc3)cs2)n1 (centres undefined) | -7 | -14
COCCCn1c(=S)[nH]c2sc3c(c2c1=O)CCCS3 | -5 | -5
CCCCC1C=CCN1C(=O)C1CCN(Cc2ccco2)CC1 (centres undefined) | 2 | 1
COc1cc(C(C2Sc3nc(C)nn3C2=O)N2CCC(C(N)=O)CC2)cc(OC)c1OC (centres undefined) | -8 | -6
COc1ccc(-c2cc(Nc3ccc(NC(=O)OC(C)(C)C)cc3)ncn2)cc1 | -8 | -8
COc1ccc(Nc2ccccc2C(=O)N2CCCC(C(F)(F)F)C2)cc1 (centres undefined) | 5 | 1
O=C(CSc1ccc(C(=O)NCc2ccncc2)cn1)c1ccc(Cl)cc1 | -8 | -12
O=C(Oc1ccc(F)cc1)c1nsc(Cl)c1Cl | -4 | -4
O=c1[nH]c(CN2CCN(S(=O)(=O)c3cc(Cl)ccc3Cl)CC2)nc2cc(Cl)ccc12 | 1 | 0
CC(SC1CCCc2ccccc21)C(=O)Nc1ncccn1 (centres undefined) | -7 | -6

Following part
Molecule | NPYLR7 ag | NPYLR7 ag max-min
O=C(c1cccs1)N(CCCn1ccnc1)c1nc2c(F)cc(F)cc2s1 | -15 | -18
CCN(Cc1nc2cc(Cl)ccc2c(=O)[nH]1)C(=O)CSc1ccc2ccccc2c1 | 0 | -4
N=C1C(c2nc3ccccc3s2)CC(=O)N1c1ccccc1Br (centres undefined) | 9 | 4
C=CCn1c(SCC(=O)NCC2CCCO2)nnc1-c1ccc(F)cc1 (centres undefined) | 19 | 27
CN(C)c1ncc(CN2CCC(N3CCC(C(=O)NC4CC4)CC3)CC2)s1 | 22 | 9
Cc1cc(F)ccc1S(=O)(=O)NCC1(N(C)C)CCCC1 | 0 | -1
Cc1ccccc1-c1cnnc(N2CCN(C3CCCC3)CC2)n1 | 1&2 | -4&-2
CC(C)n1cc2cc(NS(=O)(=O)c3cnn(C)c3)ccc2n1 | -9 | -12
CC(=O)NC1=NN(C(C)=O)C2(S1)C(=O)N(CCC(C)C)c1ccc(C)cc12 (centres undefined) | 5 | 5
COc1cc(C)c(-c2ccc(CN(C)C)cc2)cc1C | 11 | 7

2 of these compounds in another layout:
O=C(c1cccs1)N(CCCn1ccnc1)c1nc2c(F)cc(F)cc2s1
  NPYLR7 ag = -15
  NPYLR7 ag max-min = -18

CCN(Cc1nc2cc(Cl)ccc2c(=O)[nH]1)C(=O)CSc1ccc2ccccc2c1
  NPYLR7 ag = 0
  NPYLR7 ag max-min = -4

More entries
Molecule | NPYLR7 ag | NPYLR7 ag max-min
Cc1ccc(OCC(=O)n2nc(C)c(Sc3ccc([N+](=O)[O-])cc3)c2C)cc1 | -10 | -16
CC(C)N1CCC1(C)C(=O)Nc1ccc2cn[nH]c2c1 (centres undefined) | 4 | 1
Cc1nnc(NC(=O)c2cc(Cl)cc(Cl)c2)s1 | 1 | -2
O=C(O)CCNc1ccc(NCCC(=O)O)c2c1C(=O)c1ccccc1C2=O | 5 | 3
CCOC(=O)CNC(=O)N1C[C@H]2OC(=O)N(Cc3ccccc3OC)[C@H]2C1 | 6 | 2
NC(=O)c1c(N=c2oc3ccccc3cc2C(N)=O)sc2c1CCCC2 | 1 | 2
CC(C)C(NC(=O)CS(=O)(=O)c1nnc(C2CC2)n1C1CC1)c1ccccc1 (centres undefined) | -1 | 18
CCC(C)N(Cc1csc(COc2cccc(C)c2)n1)C(=O)c1cccc(Br)c1 (centres undefined) | -8 | -1
O=c1cc(CSc2ccccn2)nc(N2CCN(Cc3ccccc3)CC2)[nH]1 | 1 | 0
O=C(NC(Cn1ccnc1)c1ccccc1)c1ccc2c(c1)OCO2 (centres undefined) | 4 | 2
Cc1nc(-c2ccccc2)sc1C(=O)NCCn1nc(-c2ccncc2)ccc1=O | 6 | -3
CCc1c(C(=O)Nc2ncn[nH]2)nnn1-c1cccc(Cl)c1 | 0 | -2
Cc1cc(C)c(NC(=O)Cn2ccn3nc(-c4ccc(Cl)cc4)cc3c2=O)c(C)c1 | 2 | 1
COc1ccc(-c2nnc3ccc(SCC(=O)Nc4c(C)cc(C)cc4C)nn23)cc1 | 13 | 11
CCOCCOC(C)C(=O)Nc1nsc(N2CCCC2)n1 (centres undefined) | 1 | -3
COc1cc(OC)cc(C(=O)Nc2cc(-c3nc4cc(Cl)ccc4o3)ccc2C)c1 | -7 | -12
CC(C1CCN(Cc2nc(Cc3ccccc3Cl)no2)CC1)N1CCCC1 (centres undefined) | 21 | 2
CCn1c(SCC(=O)c2cc(C)n(CCC3=CCCCC3)c2C)nnc1C1CC1 | 0 | 24
O=C(CN1C(=O)COc2ccc(Cl)cc21)Nc1cnn(CC(=O)NC2CCCC2)c1 | 21 | 13
COc1ccccc1S(=O)(=O)N1CCC(C(=O)c2ccc(C)cc2)CC1 | -6 | -5
COc1ccc(CNC(=O)c2sc(=O)n(Cc3ccccc3C)c2C)cc1OC | 6 | 5
c1cc(NCC2CCOCC2)cc(-n2cnnn2)c1 | 0 | 91
COc1cccc(CSc2n[nH]c(=O)c3cc(-c4ccc(F)cc4)nn23)c1 | -2 | -1
Cc1nc(CN(C)C(=O)Nc2cccc(C)c2C#N)cs1 | 15 | 15
O=c1c(-c2ccccn2)coc2cc(O)ccc12 | 0 | 18
CC(C)NC(=O)NC(=O)C(C)Sc1n[nH]c(C(C)(C)C)n1 (centres undefined) | 2 | 7
O=C(NCc1ccc2c(c1)OCCO2)N1CCc2ccccc21 | -3 | -2
CCCc1ccc2oc(C(=O)NCCc3cccnc3)c(C)c2c1 | 0 | -4
COCCOC1CCN(c2nc3nonc3nc2NC2CCCC2)CC1 | -6 | -4
Cc1nc(N=C(N)NC(=O)c2ccccc2N)nc2ccccc12 | -8 | -13
CC(C)C(NC(=O)c1ccc(C(C)(C)C)cc1)C(=O)NCCc1cn2ccccc2n1 (centres undefined) | -7 | -6
Cc1ccc(S(=O)(=O)Nc2ccc(Cl)c(C(F)(F)F)c2)s1 | 4 | 0
COc1ccccc1OCC1CN(C(=O)c2cc(C)ccc2Cl)CCO1 (centres undefined) | -12 | -4
CC(C)Oc1cc(Nc2nc(N[C@@H](C)c3ccc(F)cn3)ncc2Cl)[nH]n1 | -6 | -9
CC(NC(=O)N1CCc2sccc2C1)c1ccccc1Cl (centres undefined) | -2 | -2
CN(C)CCOC(=O)C12CCC3CC(CC(C3)C1)C2 | -2&-2 | -2&-3
CC(C)Cc1cnc2c(c1SCC(=O)NC(C)C)c(=O)n(C)c(=O)n2C | 2 | 4
Cc1cc(C(=O)Cn2cc(S(=O)(=O)N3CCCC3)ccc2=O)c(C)n1Cc1ccco1 | 12 | 16
CN1CCC(O)(Cn2ccnc2-c2ccc(-c3ccccc3)s2)CC1 | 3 | -2
Cc1ccc(S(=O)(=O)NC2CCN(c3ccccc3C(=O)N3CCCC3)CC2)cc1 | -1 | 5

Compound profiles (already shown). Order of screens: NPYLR7 ag, NPYLR7 ag max-min
Results for CC(NC(=O)N1CCc2sccc2C1)c1ccccc1Cl (centres undefined) → -2, -2
Results for CN(C)CCOC(=O)C12CCC3CC(CC(C3)C1)C2 → -2&-2, -2&-3
Results for Cc1ccc(S(=O)(=O)Nc2ccc(Cl)c(C(F)(F)F)c2)s1 → 4, 0
Results for COc1ccccc1OCC1CN(C(=O)c2cc(C)ccc2Cl)CCO1 (centres undefined) → -12, -4
Results for Cc1cc(C(=O)Cn2cc(S(=O)(=O)N3CCCC3)ccc2=O)c(C)n1Cc1ccco1 → 12, 16

Continued:
Molecule | NPYLR7 ag | NPYLR7 ag max-min
CCOc1ccccc1C(=O)Nc1ccc(N2CCN(C(=O)NCCc3ccccc3F)CC2)nc1 | 17 | 19
CN(C(=O)c1cccc(C(=O)NCC#N)c1)c1ccccc1 | 7 | 6
COc1ccc(Nc2cc(C)nc(-n3cc([N+](=O)[O-])cn3)n2)cc1OC | -6 | -3
CN1CCN2CCN(C(=O)c3cccc(N4CCNC4=O)c3)CC2C1=O (centres undefined) | 0 | 4
COc1cc(Nc2cccc(-c3ccccc3)n2)cc(OC)c1OC | -6 | -9
N#CC(C#N)=C1C=CC=CN1C(=Cc1ccc(OC(F)F)cc1)C(=O)c1ccccc1 | -4 | -12
Cc1onc(-c2ccccc2)c1C(=O)N1CCOCC1 | 6 | 3
CC(=O)OC[C@H]1O[C@@H]2C[C@H]([C@@H]1OC(C)=O)N(C(=O)c1ccccc1)c1ccc(C)cc12 | 8 | 20
Cn1ccnc1C(NC(=O)COc1ccc(F)cc1)c1ccccc1 (centres undefined) | 3 | -2
N#Cc1ccc(OCc2c(-c3ccccc3)nnn2CC(=O)O)cc1 | 5 | 2
NS(=O)(=O)c1ccc2c(c1)CCN2CC(=O)NC(=O)Nc1ccccc1 | 10 | 6
CCOC(=O)N1CCN(Cn2nc(NC(C)(C)C)sc2=S)CC1 | 4 | 3
O=C(NCCCn1ccnc1)c1cc(N2CCOCC2)nc2ccccc12 | 8 | 20

Bioassay records from PubChem.

Only part of the results is shown (hit frequency here may not be typical).
